From PubChem BioAssay
Rango-impB inh – prevents formation of the Rango-importin beta complex; Rango CFP/YFP FRET sensor + importin beta, 45 min; Potency, µM (top dose mostly 92.2 µM), for the others: at the top dose inhibition of complex formation; 0.031% of 340,000 active; active = rising FRET ratio curve, often small or poorly fitted; inconclusive = mostly compound fluorescence or quenching in the first reads; inactive = flat curves in all reads;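 also: potency is read from the fitted curve at half-maximal effect; 0% = DMSO wells and 100% = buffer wells lacking importin beta; nearly all actives have a fitted effect of over 15% in size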
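FRET biosensor (snurportin 1 IBB flanked by EYFP and cerulean), 50 nM, with compound 5 min, then 0.125 microM importin beta in PBS, 1 mM DTT, 0.02% Tween-20, 0.1% BSA. CFP/YFP ratio read after 45 min at room temperature; pre-read flags interference.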
miR-21 FLuc – raises the signal of a miR-21 reporter; HeLa miR-21 FLuc reporter, luciferase, 48 h; Potency, µM (highest dose often 38.3 µM), inactives show at the top dose reporter change, positive = more light; 340,000 tested, under 10 active; AID 2288; active = well fitted rising curve with a large enough effect; inconclusive = small, poorly fitted or top-dose-only effect; inactive = no such curve, though single readings can be large or run the other way;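 also: % of control where 0% means no effect; miR-21 action dims this reporter so a rising signal means less miR-21 action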
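HeLa miR-21-FLuc reporter line, endogenous miR-21; 2000 cells/well in DMEM/10% FBS; compound titration up to ~40uM final, 48 h, 37 degree Celsius; luciferase detection reagent, 15 min lysis, CCD luminescence.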
Rango dissoc inh – inhibitors of RanGTP-induced Rango-importin beta complex dissociation; Potency, µM (top dose mostly 46.1 µM), without a hit: at the highest dose activity change, negative = inhibition; Biochemical FRET Rango-importin beta, RanGTP-induced dissociation; O95149+P62826; 0.071% of 340,000 active; active means falling FRET ratio curve, often poorly fitted, with flat reads before Ran was added; inconclusive means other falling curves, or compound fluorescence or quenching; inactive means flat or rising ratio curve;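 also: potency is read from the fitted curve at half-maximal effect; % of control where 0% means no effect; nearly all actives have a fitted effect of over 45% in size; -100% = wells without RanGTP and RCC1; the record marks most hits as doubtful in a second field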
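Compounds preincubate 5 min with complex of recombinant Rango and importin beta in PBS with 1 mM DTT. Ran (0.6 uM) loaded with 2 mM GTP plus 0.2 uM RCC1 starts dissociation; FRET is recorded 45 min later.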
GLA inh pH 4.5 – alpha-galactosidase A (human) inhibition, pH 4.5 | P06280 | purified enzyme, 4-MU-alpha-Gal fluorescence, pH 4.5 | activity change, negative = inhibition, % at 105 µM | 230,000 tested, under 10 active; inconclusive = small, poorly fitted or top-dose-only inhibition, or a rising curve; inactive = flat fitted curve, though single readings scatter; no compound was filed as active;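 also: 0% = full activity with enzyme and -100% = basal without enzyme; dose as in the result columns while the protocol names 77 µM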
Target sequence (P06280 whole entry, looked up): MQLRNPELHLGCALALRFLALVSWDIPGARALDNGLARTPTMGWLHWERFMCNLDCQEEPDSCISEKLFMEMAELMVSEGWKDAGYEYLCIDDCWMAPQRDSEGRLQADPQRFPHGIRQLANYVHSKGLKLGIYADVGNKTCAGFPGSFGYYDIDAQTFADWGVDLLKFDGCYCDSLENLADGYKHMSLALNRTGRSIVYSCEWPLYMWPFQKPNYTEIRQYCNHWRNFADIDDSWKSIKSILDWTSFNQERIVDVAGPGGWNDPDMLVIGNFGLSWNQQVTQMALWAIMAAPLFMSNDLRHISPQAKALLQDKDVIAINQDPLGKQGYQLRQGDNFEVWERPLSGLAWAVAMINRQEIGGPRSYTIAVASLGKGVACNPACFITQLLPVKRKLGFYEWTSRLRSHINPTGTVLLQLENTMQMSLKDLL
* hit, by the source's call; ? = inconclusive; . = not tested or not shown. A portion of the library; the hit share may differ from the screen's.

SMILES | Rango-impB inh | miR-21 FLuc | Rango dissoc inh | GLA inh pH 4.5
CCN(C(=O)CSc1nccc(=O)[nH]1)c1cccc2ccccc12 | 0.9% | . | 18% | .
COc1ccc(C)cc1NC(=O)c1ccc(S(=O)(=O)N2CCCCC2)cc1 | 2.0% | -2% | -1% | .
Cc1csc2nc(CNC(=O)c3ccco3)cn12 | 0.0% | -43% | 3% | 11
CCCOc1ccc(/C=C/C(=O)Nc2ccc([N+](=O)[O-])cc2)cc1 | 1.0% | 11% | -26% | 3
COC(=O)CSc1nnc(-c2ccc(NS(=O)(=O)c3ccccc3)cc2)o1 | 1.1% | 0% | 7% | 1
S=C1CCC(c2ccc(Br)cc2)=NN1c1ccccc1 | -1.9% | -10% | -11% | -9
O=S(=O)(NCC1OCCc2ccccc21)c1ccccc1 (centres undefined) | 0.8% | -4% | -12% | 3
Cc1cccc(C)c1OCCNC(=O)OCc1ccccc1 | 0.3% | -10% | 2% | 4
CC(=O)NC(Cc1ccccc1)C(=O)OCC(=O)c1ccc(F)cc1 (centres undefined) | 0.6% | -2% | -7% | -1
Cc1ccc(-c2ccc(/C=C(\C#N)C(N)=S)n2C)cc1 | 0.7% | -32% | 31% | -2
Cc1noc(NS(=O)(=O)c2ccc(NC(=O)c3ccc(Cl)c(S(=O)(=O)N(C)c4ccccc4)c3)cc2)c1C | -1.5% | . | -7% | .
Cc1ccc2nc(SCC(=O)c3ccccc3)nc(=O)n2c1 | 7.1% | . | 1% | .
COc1ccccc1C(C(C(=O)c1ccccc1)N1CCOCC1)N1CCOCC1 (centres undefined) | -2.7% | . | -4% | .
CC(C)C[C@H](NC(=O)c1nc[nH]c1C(=O)NC1CCNCC1)C(=O)OC(C)(C)C | -5.3% | . | -6% | .
Cc1cc(C(=O)NCCCN2CC(C)CC(C)C2)n(-c2ccccc2)n1 (centres undefined) | -0.7% | 1% | 4% | -3
COc1ccccc1NC(=O)CCC(=O)OCC(=O)c1ccc(C)c([N+](=O)[O-])c1 | 2.4% | 0% | 15% | .
Cc1ccc(CNC(=O)CN(C(=O)C2(C)CC(=O)N=C3C=CC=CN32)c2cccc(C)c2C)cc1 (centres undefined) | 1.5% | -2% | -11% | .
CC(C)CN(CC(C)C)c1nc(N)c(C#N)c(CC#N)c1C#N | ? | -6% | -19% | -10
CCOC(=O)C1=C(COC(=O)CCNS(=O)(=O)c2ccc(NC(C)=O)cc2)NC(=O)NC1C (centres undefined) | 2.6% | . | -12% | .
O=C(COc1cccc2c1CCN(Cc1ccccc1)C2=O)N1CCCCC1 | 5.9% | 14% | -3% | 3
Nc1ccc(C(=O)Nc2ccccc2C(=O)O)cc1 | -0.4% | 5% | 13% | 0
O=C(CCCCn1c(=O)c2ccccc2n(CC(=O)Nc2cccc(F)c2)c1=O)NCc1ccco1 | 2.8% | -27% | 18% | 3
COc1cc(CN2CCN(c3ccccc3F)CC2)cc(OC)c1O | 4.5% | -5% | 0% | 0
C/C(=N/NS(=O)(=O)c1ccccc1)c1ccc(NC(=O)C(F)(F)F)cc1 | -2.1% | 2% | 0% | -9
Cc1cc(/C=C2/SC(=O)N(CC(=O)N3CCCC3)C2=O)c(C)n1C | ? | -5% | ? | .

Individual results from the results shown.
CCN(C(=O)CSc1nccc(=O)[nH]1)c1cccc2ccccc12 in Rango-impB inh shows 0.9%
COC(=O)CSc1nnc(-c2ccc(NS(=O)(=O)c3ccccc3)cc2)o1 in miR-21 FLuc shows 0%
CC(C)C[C@H](NC(=O)c1nc[nH]c1C(=O)NC1CCNCC1)C(=O)OC(C)(C)C in Rango-impB inh shows -5.3%
CCCOc1ccc(/C=C/C(=O)Nc2ccc([N+](=O)[O-])cc2)cc1 in Rango-impB inh shows 1.0%

For reference, seven of the compounds above.
SMILES | Rango-impB inh | miR-21 FLuc | Rango dissoc inh | GLA inh pH 4.5
S=C1CCC(c2ccc(Br)cc2)=NN1c1ccccc1 | -1.9% | -10% | -11% | -9
O=S(=O)(NCC1OCCc2ccccc21)c1ccccc1 (centres undefined) | 0.8% | -4% | -12% | 3
Cc1cccc(C)c1OCCNC(=O)OCc1ccccc1 | 0.3% | -10% | 2% | 4
CC(=O)NC(Cc1ccccc1)C(=O)OCC(=O)c1ccc(F)cc1 (centres undefined) | 0.6% | -2% | -7% | -1
Cc1ccc(-c2ccc(/C=C(\C#N)C(N)=S)n2C)cc1 | 0.7% | -32% | 31% | -2
Cc1noc(NS(=O)(=O)c2ccc(NC(=O)c3ccc(Cl)c(S(=O)(=O)N(C)c4ccccc4)c3)cc2)c1C | -1.5% | . | -7% | .
Cc1ccc2nc(SCC(=O)c3ccccc3)nc(=O)n2c1 | 7.1% | . | 1% | .

Remaining list, next part
SMILES | Rango-impB inh | miR-21 FLuc | Rango dissoc inh | GLA inh pH 4.5
CC(=O)c1cccc(S(=O)(=O)NCCC(=O)NC2CCCCCC2)c1 | -4.6% | . | -1% | .
COc1ccc(N(CC(=O)NCCSc2ccccn2)S(C)(=O)=O)cc1 | -0.7% | -1% | -2% | -1
O=C(/C=C/c1ccc(Cl)cc1)Nc1ccc(N2CCCCC2)cc1 | 0.6% | -1% | -4% | -5
NC(=O)CN1CCOCCOCCN(CC(N)=O)CCOCC1 | 2.2% | -1% | -12% | 2
COC(=O)CCC(=O)Nc1nc(-c2ccccc2)cs1 | 5.1% | . | -9% | .
CCCCN1C(=S)NC[C@@H]1Cc1cccc2ccccc12 | -1.1% | -28% | 7% | 1
O=S(=O)(c1ccc(Br)s1)N1CCN(c2ncccn2)CC1 | 0.8% | 1% | ? | 5
CN(CC(O)CON=C1c2ccccc2-c2ccccc21)S(=O)(=O)c1ccc(Br)cc1 (centres undefined) | 2.4% | -11% | 8% | -6
CNC(=S)Nc1cccc(C(=O)OC)c1 | -0.1% | -56% | 8% | 5
COc1ccc(CNC(=O)CCn2cccc2)cc1 | 4.4% | -6% | 15% | 4
Cc1ccc(S(=O)(=O)N(Cc2cc3cccc(C)c3[nH]c2=O)c2ccccc2)cc1 | -3.9% | -2% | 27% | ?
N#CC(=C(O)COC(=O)c1ccc2c(c1)OCCO2)c1nc2ccccc2[nH]1 | ? | . | -14% | .
COc1ccc(CCNC(=O)CCNC(=O)c2ccc(Br)cc2)cc1OC | -0.3% | -8% | 14% | 12
COc1ccc(NC(=S)N/N=C/c2cccn2Cc2ccccc2F)cc1 | ? | -7% | 2% | 6
Cc1ccc(OCc2ccc(C(=O)NCC3CCCO3)cc2)cc1C (centres undefined) | -0.5% | . | -3% | .
NC12CC3CC(C1)CC(O)(C3)C2 | -2.1% | 0% | -10% | .
CCn1cc(C(=O)NCC(OC)OC)c(=O)c2cc(S(=O)(=O)N3CCCC3)ccc21 | -4.5% | 0% | -1% | .
CC(=O)Nc1ccccc1NC(=O)C(F)(F)F | -4.5% | -4% | 13% | 0
CCn1cc(C(=O)O)c(=O)c2cc(F)c(N3CCN(C(=S)NC(=O)c4ccccc4C)CC3)cc21 | -0.3% | -3% | -7% | 1
Cc1csc(NC(=O)c2cc3c(s2)CCCC3)n1 | -2.2% | 9% | ? | 3
CCSc1nc2c(c(=O)[nH]1)C(C(C)C)C(C#N)=C(N)O2 (centres undefined) | 0.6% | -27% | 27% | -28
Cc1cccc(NC(=S)N2CCN(S(=O)(=O)c3cccc(F)c3)CC2)c1 | -0.1% | 2% | -3% | -9
O=C(CSc1nnc(-c2cccnc2)n1Cc1ccco1)c1ccc(Cl)c(Cl)c1 | 2.6% | -11% | 0% | 9
COc1ccc(-c2ccc(SCC(=O)c3cccs3)nn2)cc1 | 0.5% | -50% | 2% | -8
CC(NC(=O)C1CCN(C(=O)[C@@H]2Cc3ccccc3CN2C(=O)OC(C)(C)C)CC1)c1ccccc1 (some centres undefined) | -4.7% | 1% | 2% | .

The results go on:
SMILES | Rango-impB inh | miR-21 FLuc | Rango dissoc inh | GLA inh pH 4.5
COc1ccc(/C=N/N(CCC(=O)NC(C)(C)C)C2=NS(=O)(=O)c3ccccc32)cc1 | ? | -3% | 32% | .
CC(C(=O)O)N(c1ccccc1Cl)S(C)(=O)=O (centres undefined) | -0.5% | . | 2% | .
O=C(COc1coc(CN2CCc3ccccc32)cc1=O)N1CCCCC1 | -2.3% | . | 28% | .
Cn1cc(C(=O)N/N=C/C2=C(N3CCOCC3)C(=C/c3ccc([N+](=O)[O-])cc3)/CC2)ccc1=O | 1.3% | . | -17% | .
COCCNC(=O)c1ccc2c3n(nc2c1)-c1ccccc1CO3 | 0.7% | -41% | -4% | 8
S=c1[nH]nc(-c2ccc(Br)cc2)n1Cc1ccccc1 | -0.6% | -6% | -15% | -3
CN(C)/N=C/c1cn(-c2ccccc2)nc1-c1cccnc1 | -0.1% | -3% | -4% | 2
CCOc1ccc(CCNC(=O)C(CC)n2nc(C)n3c(cc4sccc43)c2=O)cc1OCC (centres undefined) | 6.1% | 8% | 1% | -2
COc1cc(CNC(=O)c2ccccc2NC(=O)C2=C(C)OCCS2)cc(OC)c1OC | -0.3% | 10% | 9% | .
Cc1ccc(NS(=O)(=O)c2ccc(C(=O)N3CCN(S(=O)(=O)c4ccccc4)CC3)cc2)cc1 | ? | . | -14% | .
O=C(NNC(=O)c1cccc(Br)c1)C(=O)N1CCCCC1 | -2.2% | -6% | -12% | 6
CC(C)(C)c1ccc(-c2noc(-c3ccc4c(c3)CCO4)n2)cc1 | 0.3% | -35% | 1% | -2
COc1ccc(-n2c3c(cc(C(=O)NNc4ccccc4C)c2=O)C(=O)CC(C)(C)C3)cc1 | 5.3% | -2% | 0% | 1
O=C(Cc1ccc(F)cc1)N1CCC(CC2CC(c3cccc(Br)c3)=NO2)(C(=O)NCC2CCCCC2)CC1 (centres undefined) | -1.2% | 16% | 23% | .
C=CCn1c(N)cc(=O)nc1SCC(=O)Nc1ccc(C(=O)OC)cc1 | -4.4% | 2% | 6% | .
NS(=O)(=O)c1cccc(NC(=O)CSc2nnc(C3CC3)n2C2CC2)c1 | 0.1% | . | -4% | .
COc1ccc(C(=O)/C(C#N)=N/Nc2cccc([N+](=O)[O-])c2)cc1 | 1.1% | 20% | 11% | -5
COc1ccc(-c2cc(C(F)F)n3ncc(C(=O)Nc4cccc(S(=O)(=O)N5CCOCC5)c4)c3n2)cc1 | ? | -3% | ? | 0
CCC(C)n1c(SCC(=O)/C(C#N)=C(\C)N)nc2ccccc2c1=O (centres undefined) | 0.2% | -2% | -8% | -10
COc1ccccc1CN1CC(C(=O)N2CCOCC2)CCC1=O (centres undefined) | -0.2% | -9% | 2% | .
CCOC(=O)c1c(C)[nH]c(C(=O)COC(=O)c2cn(CC)c3nc(C)ccc3c2=O)c1C | . | -4% | . | 1
C=CCN1C(=O)C2(OCCCO2)c2cccc(Cl)c21 | 0.5% | -2% | -8% | .
CCC(=O)N1CCN(c2nc(CC)nc3sc4c(c23)CCCC4)CC1 | 2.0% | 5% | -12% | .
O=C(NCCc1ccccc1)C1CCCN1S(=O)(=O)c1ccc(F)cc1 (centres undefined) | 4.3% | . | -11% | .
COC(=O)/C(=C\c1ccc(O)cc1)c1nc2ccccc2[nH]1 | ? | -26% | ? | 5
CCNC(=O)N1CCC(n2nccc2NC(=O)CCOc2ccccc2)CC1 | -1.0% | -2% | 16% | .
Cc1ccc(OCCn2c(C)c(/C=N/n3cnnc3)c3ccccc32)cc1 | 1.2% | -35% | -2% | 2
O=c1nc(/C=C/c2cccn2-c2ccc([N+](=O)[O-])cc2)cc(C(F)(F)F)[nH]1 | 2.0% | -1% | -8% | -4
CN1C(=O)N(C)C2CC1N(C)C(=O)N2C | 2.3% | 1% | 1% | -1
Cc1ccc(NC(=O)[C@@H]2CCC(=O)N2C2OC(=O)c3ccccc32)cc1Cl (some centres undefined) | 0.4% | 0% | -12% | .

Grouped by structure, those above with a CF3 group (3)
SMILES | Rango-impB inh | miR-21 FLuc | Rango dissoc inh | GLA inh pH 4.5
C/C(=N/NS(=O)(=O)c1ccccc1)c1ccc(NC(=O)C(F)(F)F)cc1 | -2.1% | 2% | 0% | -9
CC(=O)Nc1ccccc1NC(=O)C(F)(F)F | -4.5% | -4% | 13% | 0
O=c1nc(/C=C/c2cccn2-c2ccc([N+](=O)[O-])cc2)cc(C(F)(F)F)[nH]1 | 2.0% | -1% | -8% | -4
